# FGF22 binding – binders of human FGF22 protein, primary screen, FGF22 synaptogenesis inhibitor project, biophysical, thermal shift, single point. recombinant FGF22 thermal shift, SYPRO orange fluorescence; percent of sucrose octasulfate shift, DMSO zero. Fibroblast growth factor 22 (Homo sapiens), Q9HCT0. calls only at 9.99 µM. AID 651658, 2012. hit rate 1.5% among 340,000;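 active = melting point raised past a set limit in the mean and every replicate; inconclusive = no clear call; three in four hits are not shown here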
# UCH37 inh – inhibitors of human UCH37 deubiquitinase, primary screen, biochemical, Ub-AMC cleavage, fluorescence; Ubiquitin carboxyl-terminal hydrolase isozyme L5 (Homo sapiens), Q9Y5K5; purified proteasome/UCH37; inhibition, % (test concentration not listed); hit rate 0.33% among 330,000;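 active = mean of two replicates above 20%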;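 also: 0% = compound-free wells with enzyme and 100% = wells lacking proteasome; stock transfer was 100 nL into about 20 µL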
# Target sequence (Q9Y5K5 whole entry, looked up): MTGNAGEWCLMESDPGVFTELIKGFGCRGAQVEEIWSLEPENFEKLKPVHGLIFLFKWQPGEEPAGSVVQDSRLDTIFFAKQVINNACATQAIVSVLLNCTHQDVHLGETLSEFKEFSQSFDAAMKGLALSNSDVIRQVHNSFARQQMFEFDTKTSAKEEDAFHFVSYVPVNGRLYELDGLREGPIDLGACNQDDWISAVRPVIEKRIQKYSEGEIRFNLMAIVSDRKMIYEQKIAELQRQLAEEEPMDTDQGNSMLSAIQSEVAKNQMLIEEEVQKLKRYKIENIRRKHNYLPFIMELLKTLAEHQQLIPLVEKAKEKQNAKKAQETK
#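 Material: human UCH37 enzyme supplied as purified proteasome complex. Measure: % inhibition of Ub-AMC cleavage fluorescence. Medium: pH 7.4 Tris-HCl (50 mM) with ovalbumin, ATP-MgCl2, DTT. Times: 30 min preincubation with enzyme, 25 min cleavage at room temperature. Detection: AMC fluorescence intensity at 355/460 nm.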
# B2AR ag – beta2AR agonists driving receptor internalization, primary screen, cell-based, FAP fluorogen, flow cytometry; Beta-2 adrenergic receptor (Homo sapiens), P07550; Am2.2-beta2AR cells; reference of the scale not given here; response, % (test concentration not listed); AID 504454, 2011; hit rate 0.43% among 340,000;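 active = response above a set limit, near 3 SD of response in nonfluorescent compounds, cut at about 42% in these data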;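 also: stock transfer was 100 nL into about 11 µL; a reference agonist was the positive control; negative values mostly stem from fluorescent compounds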
# Target sequence (P07550 whole entry, looked up): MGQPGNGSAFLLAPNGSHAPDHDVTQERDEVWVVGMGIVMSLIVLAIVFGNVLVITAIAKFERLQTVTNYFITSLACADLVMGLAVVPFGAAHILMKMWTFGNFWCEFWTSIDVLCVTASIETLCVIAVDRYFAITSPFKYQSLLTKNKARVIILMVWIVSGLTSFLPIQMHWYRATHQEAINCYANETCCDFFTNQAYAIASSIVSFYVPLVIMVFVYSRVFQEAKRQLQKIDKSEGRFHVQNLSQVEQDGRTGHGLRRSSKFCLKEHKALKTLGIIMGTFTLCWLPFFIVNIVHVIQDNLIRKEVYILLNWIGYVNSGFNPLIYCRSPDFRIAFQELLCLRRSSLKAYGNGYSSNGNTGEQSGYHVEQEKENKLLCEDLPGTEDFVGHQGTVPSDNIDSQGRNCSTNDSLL
# HNF4A DNA FP – change in binding of human HNF4A to DNA, primary screen, biochemical, fluorescence polarization, FITC-DNA; Hepatocyte nuclear factor 4-alpha (Homo sapiens), P41235; 1 h; activity change, % at 10 µM; hit rate 0.3% among 360,000; AID 1224865, 2016; in the data active = activity change above about 30%, passing the limit was not always enough;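 also: controls were the assay level and a saturating level of protein; the project sought stronger binding though the title names inhibitors; some compounds called inactive have numbers as strong as hits; positive values seem to mean higher polarization but the record does not say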
# rRNA inh HTS – reduced GFP signal of wild-type E. coli, primary screen, bacterial rRNA inhibitor project, GFP/RFP fluorescence, OD600, single point. AID 720706, 2013. E. coli WT GFP vs humanized-ribosome RFP mutants, 24 h; stronger effect = lower value; DMSO median 0, no signal -100. hit rate 1.6% among 350,000. GFP signal change (wild-type ribosome), % (test concentration not listed);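 active = significant combined selectivity score with lowered wild-type GFP, culture density cut under 30%, mutant RFP and density less affected; inactive = any of these conditions unmet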; also: one replicate is shown; some compounds called inactive have numbers as strong as hits
# ALR H2O2 inh – inhibitors of human ALR sulfhydryl oxidase, primary screen, biochemical, H2O2 detection, HRP-luminol luminescence, single point; FAD-linked sulfhydryl oxidase ALR (Homo sapiens), P55789; purified ALR, DTT oxidation; inhibition, % (no concentration beside the values); hit rate 3.8% among 290,000; AID 485317, 2010;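 active = mean and each replicate at 75% or more; inconclusive = only one of the two met; inactive = neither met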;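 also: stock transfer was 7.5 nL into about 7.5 µL; 0% = neutral wells and 100% = wells with inactivated enzyme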
# Target sequence (P55789 whole entry, looked up): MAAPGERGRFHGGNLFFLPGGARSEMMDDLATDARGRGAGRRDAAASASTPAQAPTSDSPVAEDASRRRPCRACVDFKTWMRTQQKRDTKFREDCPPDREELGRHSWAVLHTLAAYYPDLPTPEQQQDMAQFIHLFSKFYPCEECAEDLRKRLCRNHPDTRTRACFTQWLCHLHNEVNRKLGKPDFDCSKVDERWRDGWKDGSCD
# E coli growth – E. coli growth inhibition, primary screen, OD600 | Escherichia coli growth, 23 h; stronger effect = lower value | OD600 absorbance (no concentration beside the values) | hit rate 0.21% among 330,000;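 active = OD600 absorbance below the run mean of sample wells minus 3.6 SD, in any replicate, cut at about 0.56 in these data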;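 also: stock transfer was 300 nL into about 60 µL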
# rRNA inh HTS OD600 – also measured in rRNA inh HTS; calls as there; OD600 change, %; measured here: OD600 growth;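 optical density of the mix in the first replicate; 0 = DMSO median and -100 = no signal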
# rRNA inh HTS RFP – recorded beside rRNA inh HTS, whose call it bears; RFP signal change, %; measured here: RFP humanized mutant strains;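 first replicate; 0 = DMSO median and -100 = no signal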
# * hit, by the source's call; i = inactive; u = inconclusive; x = no result given; + = active, no number. Some of the compounds tested (hit frequency here may not be typical).
SMILES,FGF22 binding,UCH37 inh,B2AR ag,HNF4A DNA FP,rRNA inh HTS,rRNA inh HTS OD600,rRNA inh HTS RFP,ALR H2O2 inh,E coli growth
CCOC(=O)c1sc2nc(C)nc(NCc3cccnc3)c2c1C,i,-44,-5,6.8,15,-8,1.3,2,0.73
S=c1[nH]nc(-c2cnccn2)n1-c1ccccc1,x,-1.4,0,3.5,x,x,x,39,0.7
COc1ccc2oc(C(=O)N3CCN(C(c4ccccc4)c4ccccc4)CC3)c(C)c2c1,i,-2.6,3,1.2,6,14,0.4,-1,0.65
COc1cccc(OC2(C)CCN(Cc3ccc(-c4ccccn4)cc3)C2)c1 (stereo not drawn),i,x,x,-0.6,-6,-3,2.4,x,x
Cc1nn(Cc2ccc(F)cc2)c2sc(C(=O)Nc3ccc(N4CCOCC4)cc3N3CCOCC3)cc12,i,1.4,0,-5.8,5,6,-1.5,-1,0.69
CN(Cc1ccccc1F)C(=O)C1CCCN(C(=O)c2ccc(Cl)cc2)C1 (stereo not drawn),i,5.3,8,-1.1,-10,-8,1.9,x,0.67
CC(=O)N1c2ccc(S(=O)(=O)NCc3ccco3)cc2CC1C (stereo not drawn),i,5.2,-4,3.6,6,8,-2.3,-11,0.67
CCC(C)(C)NC(=O)c1ccc(Br)o1,i,0.5,0,0.1,-12,-5,-4.4,-4,0.69
O=C(O)c1ccccc1C(=O)c1ccc2c(c1)N(Cc1cccc(F)c1)C(=O)CO2,i,-1.1,-6,0.8,-26,-43,-1.0,-43,0.74
Cc1ccc(S(=O)(=O)N2CCOCC2)cc1NC(=O)COC(=O)c1ccc(Cl)nc1,i,0.5,-4,-0.1,3,10,-0.4,-8,0.65

# 4 compounds drawn at random from those above:
SMILES,FGF22 binding,UCH37 inh,B2AR ag,HNF4A DNA FP,rRNA inh HTS,rRNA inh HTS OD600,rRNA inh HTS RFP,ALR H2O2 inh,E coli growth
CCOC(=O)c1sc2nc(C)nc(NCc3cccnc3)c2c1C,i,-44,-5,6.8,15,-8,1.3,2,0.73
CN(Cc1ccccc1F)C(=O)C1CCCN(C(=O)c2ccc(Cl)cc2)C1 (stereo not drawn),i,5.3,8,-1.1,-10,-8,1.9,x,0.67
S=c1[nH]nc(-c2cnccn2)n1-c1ccccc1,x,-1.4,0,3.5,x,x,x,39,0.7
Cc1nn(Cc2ccc(F)cc2)c2sc(C(=O)Nc3ccc(N4CCOCC4)cc3N3CCOCC3)cc12,i,1.4,0,-5.8,5,6,-1.5,-1,0.69

# The results go on:
SMILES,FGF22 binding,UCH37 inh,B2AR ag,HNF4A DNA FP,rRNA inh HTS,rRNA inh HTS OD600,rRNA inh HTS RFP,ALR H2O2 inh,E coli growth
CC(=O)OC[C@@H]1CN(Cc2ccccc2)C[C@H](n2cnc3c(N4CCOCC4)ncnc32)O1,i,x,x,1.6,5,11,2.2,x,x
CSc1cccc(NC(=S)N(CCC(C)C)C(C)c2ccncc2)c1 (stereo not drawn),i,1.7,2,3.6,1,-4,-3.9,-9,0.67
COCCCNC(=O)COc1ccc(S(=O)(=O)NCc2ccccc2)cc1Cl,x,1.1,0,2.5,x,x,x,-2,0.67
O=C(NCCc1c[nH]c2ccccc12)c1cc(Cl)c2c(c1)OCO2,i,-0.7,-4,0.5,-21,-36,-2.1,0,0.65
CCOc1ccc2cc(S(=O)(=O)n3ccnc3C)ccc2c1,x,-2.8,4,1.8,x,x,x,-22,x
CC1C(=O)N(Cc2ccc([N+](=O)[O-])cc2)c2ccccc2N1C(=O)C1CC1 (stereo not drawn),i,4.3,x,x,13,11,-0.9,-7,0.66
COc1cc(OC)cc(C(=O)Nc2ccc(S(=O)(=O)Nc3ccccn3)cc2)c1,i,-4.7,8,3.1,4,9,-2.4,x,0.72
Cc1cc(C)c(S(=O)(=O)NCC(c2ccco2)N2CCc3ccccc3C2)c(C)c1 (stereo not drawn),i,-0.1,7,1.3,-4,-11,6.4,-7,0.68
CC[C@@H](C)[C@H](NC(=O)CNC(=O)Cc1c(C)c2c(cc(C)c3c(C)coc32)oc1=O)C(=O)O,i,-461,-1,1.7,4,0,0.8,-3,0.64
COc1ccc(CCC(=O)Nc2ccc(S(=O)(=O)N3CCOCC3)cc2)cc1OC,i,x,x,-1.5,-3,8,-1.5,x,x
COc1cccc(OC)c1C(=O)OCC(=O)NCCCc1ccccc1,i,4.1,-5,5.5,-11,1,2.2,x,0.66
CN(C(=O)c1ccco1)c1nc(-c2ccc(Cl)cc2)cs1,i,x,6,3.3,8,5,-4.9,-3,x
CCOc1ccccc1NC(=O)CSc1nnc(-c2cnccn2)n1CC,x,1.6,6,-1.6,x,x,x,-8,0.66
O=C(Nc1ccccc1)Nc1nnc(-c2cccs2)s1,x,-13,-5,0.8,x,x,x,x,0.72
Cc1ccc(S(=O)(=O)NNC(=O)Nc2cccc(C)c2C)c(C)c1,i,-1.4,5,3.2,-3,-6,1.3,3,0.68
NNC(=O)c1ccc(Cl)cc1Cl,i,4.1,-16,4.8,18,9,-1.9,-9,0.69
CC(=O)Nc1ccccc1-c1nc2ccc(C(=O)N3CCN(c4cc(C)ccc4C)CC3)cc2[nH]c1=O,i,3.7,7,-1.2,0,-1,19,-5,0.75
CN1CCC(C)(C(=O)Nc2cccc3c2CCCC3)C1 (stereo not drawn),+,x,x,-3.9,8,19,2.5,x,x
Cc1nc(N)sc1Cc1ccc2c(c1)OCO2,x,4.8,2,-1.3,x,x,x,u,0.71
S=c1[nH]cc(Oc2ccc(Cl)cc2Cl)c(=S)[nH]1,i,9.2,x,4.8,-52,-65,-18,x,0.63
CC(=O)c1cccc(NC(=O)CSc2n[nH]c(-c3ccncc3)n2)c1,+,4.6,0,2.5,1,-8,-0.6,8,0.68
COc1ccc([N+](=O)[O-])cc1NC(=O)CSc1ccccc1,x,1.7,-5,3.5,x,x,x,10,0.75
CN1CCN(CCNC(=O)Nc2ccccc2C(F)(F)F)CC1,x,0.8,-4,0.5,x,x,x,x,0.69
O=C(c1ccc2c(c1)OCO2)C1CCCN(C2CCN(CCc3ccccc3)CC2)C1 (stereo not drawn),i,1.0,6,6.7,-3,-5,1.1,-11,0.62
Cc1ccc(CNC(=O)Nc2ccc(C)cc2)cc1,x,6.0,5,4.5,8,18,3.0,10,0.66
O=C(NCC(c1ccc(F)cc1)N1CCOCC1)c1nn(-c2ccccc2)c(=O)c2ccccc12 (stereo not drawn),i,3.4,4,3.0,-18,-11,2.1,-16,0.66
COc1ccc2nc(SCC(=O)N(C)C3CCCCC3)[nH]c2c1,i,1.1,0,0.5,-5,-8,0.6,3,0.63
COCCNC(=O)CCCCCN1C(=O)CCC1=O,x,4.1,-6,-3.8,x,x,x,-15,0.74
COc1ccc(Nc2nc(-c3ccccc3)nc3ccccc23)c(OC)c1,i,-31,2,2.5,1,-2,-5.5,-1,0.7
COCCN=C1NN=C(c2ccc(NC(C)=O)cc2)CS1,x,-4.8,-1,6.6,10,12,0.6,u,0.66
O=C1C(=O)N(Cc2ccccc2)C(c2cccc(O)c2)/C1=C(\O)c1ccc2c(c1)OCCO2 (stereo not drawn),i,9.4,0,-1.7,11,6,0.3,5,0.7
C#CCOC(=O)C(NC(=O)c1ccccc1)=C(C)C,x,-1.0,-2,4.6,x,x,x,-13,0.74
CCOc1ccc(N2C(=O)CN=C2Nc2ccccc2F)cc1,x,-0.9,-4,4.3,x,x,x,-3,0.75
CCC1=C2CC[C@H]3C(=O)N(CC(=O)OC)C(=O)[C@H]3[C@H]2[C@@]2(C)C(=NCC(=O)OC)OC(=O)N2C1=O,i,-1.1,-4,1.4,4,7,-5.8,x,x
[O-]/C(=C(\C(=S)NCc1ccco1)[n+]1ccccc1)c1ccccc1Br,x,7.2,-2,3.9,x,x,x,-26,0.73
COc1ccc(CCCc2nnc(SCC(=O)Nc3ccc(C)c(C)c3)o2)cc1,x,2.2,5,-1.9,x,x,x,-3,0.65
O=[N+]([O-])c1ccc(Nc2cccc(F)c2)nc1,+,3.7,-1,1.7,-8,-12,38,32,0.63
Cc1ccc(C(=O)NCC(=O)OCC(=O)Nc2ccc(Cl)cn2)cc1,i,-2.3,4,-1.0,-3,7,-3.1,-6,0.64
Cc1cnc2ncc3sccc3c2c1,i,1.8,-10,2.2,-1,4,-3.4,-3,0.63
Cc1ccc(S(=O)(=O)n2nc(C)c(S(=O)(=O)N3CCCCC3)c2C)cc1,i,1.4,2,1.0,5,8,-1.1,-2,0.69

# 3 compounds from above, arranged by the value under rRNA inh HTS, lowest first.
smiles	rRNA inh HTS
O=[N+]([O-])c1ccc(Nc2cccc(F)c2)nc1	-8
Cc1ccc(C(=O)NCC(=O)OCC(=O)Nc2ccc(Cl)cn2)cc1	-3
O=C1C(=O)N(Cc2ccccc2)C(c2cccc(O)c2)/C1=C(\O)c1ccc2c(c1)OCCO2 (stereo not drawn)	11

# Continued:
SMILES,FGF22 binding,UCH37 inh,B2AR ag,HNF4A DNA FP,rRNA inh HTS,rRNA inh HTS OD600,rRNA inh HTS RFP,ALR H2O2 inh,E coli growth
O=C1CC(c2ccc(O)cc2)Oc2ccccc21 (stereo not drawn),i,4.6,-8,2.0,-16,-19,-4.9,u,0.69
NC(=S)Nc1ccc2cc[nH]c2c1,i,5.8,3,-0.2,6,13,0.7,u,0.72
CCn1nc(CC(C)C)cc1C(=O)N1CCCC(Nc2ccc(OC)cc2)C1 (stereo not drawn),i,2.0,6,-2.5,1,-3,-0.2,98*,0.69
O=C(Nc1ccc2c(c1)OCO2)C1CCN(Cc2cc3c(cc2O)OCO3)CC1,i,0.9,-7,-3.3,12,4,1.5,14,0.54
CCc1cccc(C)c1NC(=O)CN(C)Cc1ccc(Br)cc1,i,-1.0,5,-0.3,-21,27,0.0,-55,0.73
O=C(NC(=S)Nc1ccccc1N1CCOCC1)c1ccc(-c2cc(Cl)ccc2Cl)o1,x,1.2,2,1.3,x,x,x,-11,0.76
CCn1cc(C(=O)NCc2ccccc2Cl)cn1,x,1.1,-13,-2.4,x,x,x,-2,0.69
C#CCn1c(=NC(=O)CSC(C)=O)sc2cc(F)ccc21,x,2.6,0,1.3,x,x,x,97*,0.75
COc1ccccc1-c1cc2nc(-c3ccccc3)cc(N3CCN(C(=O)c4ccco4)CC3)n2n1,i,x,x,-2.4,9,14,28,x,x
O=S(=O)(c1cccc2ccccc12)N1CCCCC1,i,0.0,-2,3.2,-17,-16,3.4,x,0.69
COC(=O)c1ccccc1NC(=O)COC(=O)c1ccc(C)c(NC(=O)c2ccco2)c1,x,0.6,1,2.0,x,x,x,x,0.74
CCC(=O)NNc1ncnc2c1cnn2-c1cccc(C)c1,i,2.6,6,3.7,-3,11,1.9,27,0.7
